PTHR1 ag: agonists of human PTHR1 parathyroid hormone receptor; Q03431; HEK293 GP2 PTHR1 cells, GloSensor cAMP luminescence, 1 h; Potency, µM (series often up to 115 µM), for inactives: top-dose activation, usual class: activators; hit rate 0.075% among 410,000; further: potency means the concentration at half of the fitted maximal effect; nearly all actives have a fitted effect of over 55% in size; some results filed as inactive show a strong effect at the top dose; inactives centre near -15; many of its hits are not listed in these tables
Target sequence (Q03431 whole entry, looked up): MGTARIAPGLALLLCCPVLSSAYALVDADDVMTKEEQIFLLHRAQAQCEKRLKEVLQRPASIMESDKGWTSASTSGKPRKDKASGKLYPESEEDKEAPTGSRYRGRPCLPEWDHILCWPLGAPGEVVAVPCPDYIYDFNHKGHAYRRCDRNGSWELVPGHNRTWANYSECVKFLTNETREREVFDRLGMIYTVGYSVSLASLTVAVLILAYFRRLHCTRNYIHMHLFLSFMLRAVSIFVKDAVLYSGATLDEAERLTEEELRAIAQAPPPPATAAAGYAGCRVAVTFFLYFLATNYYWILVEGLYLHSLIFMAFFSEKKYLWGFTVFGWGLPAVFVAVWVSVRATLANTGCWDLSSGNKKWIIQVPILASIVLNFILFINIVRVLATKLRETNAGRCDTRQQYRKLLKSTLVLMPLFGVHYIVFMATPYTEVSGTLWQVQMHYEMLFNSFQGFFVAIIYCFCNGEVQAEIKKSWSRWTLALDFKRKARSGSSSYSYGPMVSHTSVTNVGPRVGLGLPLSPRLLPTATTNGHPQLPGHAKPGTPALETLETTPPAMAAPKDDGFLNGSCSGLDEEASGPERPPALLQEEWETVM
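HEK-293-derived GP2 cells expressing PTHR1 and a GloSensor cAMP reporter, 3,000/well, plated overnight, given luciferin plus IBMX (each 0.5 mM as added) for 1 h at 37 °C, then compound for 1 h at 37 °C. Luminescence was read after 15 min at room temperature.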
Abeta yeast res: A-beta toxicity reversal in yeast; yeast expressing A-beta42, growth rescue, OD600, 48 h; response scale: 0% DMSO, 100% iron-clioquinol control; Potency, µM (highest dose often 46.1 µM), inactives show top-dose growth rescue, actives largely listed as activators; hit rate 0.063% among 410,000; AID 1347071; further: potency means the concentration at half of the fitted maximal effect; nearly all actives have a fitted effect of over 55% in size
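Yeast A-beta toxicity model in growth medium with pinned compounds, 48 h at 30 C; growth read as absorbance at 600 nm. Normalized to FeCl3/clioquinol equimolar mix (positive) and DMSO (negative).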
GLP1R ag: agonists of human GLP-1 receptor. HEK293 GLP-1R CRE-luciferase, luminescence, 4-6 h; cells express a hypersensitive GLP-1R form. Potency, µM (series often up to 45.6 µM), without a hit: at the top dose activation, most hits filed as activators. hit rate 0.007% among 380,000; further: potency means the concentration at half of the fitted maximal effect; % of control where 0% means no effect
FUS yeast rescue: rescues growth of FUS-expressing yeast; S. cerevisiae FUS-expressing, growth rescue, OD600, 24 h; Potency, µM (highest dose often 76.6 µM), for the others: at the top dose growth rescue (activation), most hits filed as activators; hit rate 0.24% among 390,000;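 further: potency means the concentration at half of the fitted maximal effect; plate controls were DMSO vehicle for no effect and reference control for full effect; nearly all actives have a fitted effect of over 55% in size; some results filed as inactive show a strong effect at the top dose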
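Toxicity suppression screen in FUS-yeast. Cells induced with 2% galactose, starting OD 0.005, treated 24hr at 30C with compounds at multiple final concentrations; growth by OD600.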
Akt phos inh: inhibitors of Akt phosphorylation; activity change, % for hits at 50 µM; Neuro2A IGF-stimulated pAkt S473 HTRF, 20 min; stronger effect = lower value; hit rate 0.32% among 360,000; AID 651550; in the data active means activity change below about -80%; inconclusive means mostly about -51% to -80%; further: on the % scale 0 is the no-effect control and ±100 the full control effect
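Neuro2A cells in DMEM with 0.5% FBS, overnight at 37 deg C, given compound at single 50 µM final, then IGF (6 nM final) for 20 min at 37 deg C. Lysed; phospho-Akt Ser473 by HTRF after 24 h, 665/615 ratio.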
GLP-1R inv ag: inverse agonists of human GLP-1 receptor; P43220; HEK293 GLP-1R CRE-luciferase, luminescence, 24 h; GLP-1R form is constitutively active; Potency, µM (doses to about 38.3 µM), without a hit: at the highest dose activity change, negative = inhibition, usual class: inhibitors; hit rate 1.6% among 410,000; AID 624417; further: potency means the concentration at half of the fitted maximal effect; on the % scale 0 is the no-effect control and ±100 the full control effect; nearly all actives have a fitted effect of over 55% in size
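Inverse agonists were sought by their lowering of basal cAMP reporter luciferase output in HEK293 cells stably carrying constitutively active human GLP-1R, after 24 h compound treatment.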
aSyn yeast inh: rescues yeast growth from alpha-synuclein toxicity. Yeast expressing alpha-synuclein, growth rescue, BacTiter-Glo, 24 h. Potency, µM (highest dose often 46.1 µM), without a hit: at the top dose growth rescue (activation), hits mostly activators. hit rate 0.14% among 370,000; further: potency means the concentration at half of the fitted maximal effect; % of control where 0% means no effect; nearly all actives have a fitted effect of over 65% in size
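Galactose-induced alpha-syn yeast (OD600=0.02, raffinose-pregrown) + pinned cpd, 24 hr, 30 deg C; growth by BacTiter-Glo luminescence. Growth restoration scores as activation.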
TDP-43 yeast inh: TDP-43 toxicity inhibition in yeast; Potency, µM (doses to about 46.1 µM), inactives show top-dose growth rescue (activation), hits mostly activators; TDP-43 expressing yeast growth rescue, BacTiter-Glo, 24 h; hit rate 1.8% among 410,000; further: potency means the concentration at half of the fitted maximal effect; % of control where 0% means no effect; nearly all actives have a fitted effect of over 50% in size
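In this qHTS, compounds that restore growth of yeast expressing TDP-43 appear as activators. Cells (OD600=0.02, galactose medium, raffinose-pregrown) are incubated with compound 24 hr at 30 deg C and growth is quantified by BacTiter-Glo.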
The depositor's hits bear a star; & = joins results of further samples; [ ] = another dose, or the depositor's remark. Unless noted, the call rests on the fitted dose curve; in most records, active means well fitted curve in the direction sought with a large enough effect; inconclusive means small, poorly fitted or top-dose-only effect, or another doubt; inactive means no such curve, though single readings can be large; an effect the other way counts as inactive or inconclusive.

For C=CCN1CCc2c(cc(O)c(O)c2Cl)C(c2ccccc2)C1 (stereo unspecified) the results were PTHR1 ag -19.2%, Abeta yeast res -10.8%, GLP1R ag 1.3%, FUS yeast rescue -19.8%, Akt phos inh inactive, GLP-1R inv ag -15.8%, aSyn yeast inh 4.3%&-0.8% and TDP-43 yeast inh 22.9%.
For CCN[C@@H]1C[C@H](C)S(=O)(=O)c2sc(S(N)(=O)=O)cc21 the results were GLP1R ag 2.4%.
For COC(=O)C1=C(C)NC(C)=C(C(=O)OCCN(C)Cc2ccccc2)C1c1cccc([N+](=O)[O-])c1 (stereo unspecified) the results were PTHR1 ag -20.0%, Abeta yeast res -24.7%, GLP1R ag -0.3%&-6.4%, FUS yeast rescue -9.8%, Akt phos inh inactive, GLP-1R inv ag inconclusive, aSyn yeast inh inconclusive and TDP-43 yeast inh -0.7%.
Screening O=C(O)c1cc(-c2ccccc2)nc2ccccc12 returned PTHR1 ag inactive, Abeta yeast res -24.1%, GLP1R ag -0.2%, FUS yeast rescue -29.5%, GLP-1R inv ag 6.6%, aSyn yeast inh -6.2% and TDP-43 yeast inh 1.4%.
NCCS(=O)(=O)O was read as PTHR1 ag inactive, Abeta yeast res -31.3%, GLP1R ag -3.8%&-6.2%, FUS yeast rescue -37.1%, Akt phos inh inactive, GLP-1R inv ag 13.4%, aSyn yeast inh -11.8%&-1.2% and TDP-43 yeast inh 14.3%.
Screening COc1c(N2C[C@@H]3CCCN[C@@H]3C2)c(F)cc2c(=O)c(C(=O)O)cn(C3CC3)c12 returned PTHR1 ag -12.1%, Abeta yeast res 7.2%, GLP1R ag -1.3%, FUS yeast rescue -18.9%, Akt phos inh inactive, GLP-1R inv ag -10.5%, aSyn yeast inh -0.8% and TDP-43 yeast inh 0.0%.
For CCOC(=O)O[C@@H](C)OC(=O)[C@@H]1N2C(=O)[C@@H](NC(=O)[C@@H](N)c3ccccc3)[C@H]2SC1(C)C the results were GLP1R ag -0.2%[19.8 µM].
For Nc1ccn([C@@H]2O[C@H](CO)[C@@H](O)C2O)c(=O)n1 (stereo partly specified) the results were PTHR1 ag inactive, Abeta yeast res -5.0%, GLP1R ag -1.9%&-2.8%, FUS yeast rescue -41.0%, Akt phos inh inactive, GLP-1R inv ag inconclusive, aSyn yeast inh 0.0%&4.7% and TDP-43 yeast inh 9.9%.
For Cc1cccc(CN2CCN(C(c3ccccc3)c3ccc(Cl)cc3)CC2)c1 (stereo unspecified) the results were PTHR1 ag 13.4%, Abeta yeast res -19.4%, GLP1R ag -0.8%, FUS yeast rescue 26.4%, Akt phos inh inactive, GLP-1R inv ag inconclusive, aSyn yeast inh -17.6% and TDP-43 yeast inh -5.2%.
For CN=C(C[N+](=O)[O-])NCCSCc1ccc(CN(C)C)o1 the results were PTHR1 ag -1.1%, Abeta yeast res -8.8%, GLP1R ag 3.4%, FUS yeast rescue -10.3%, Akt phos inh inactive, GLP-1R inv ag 5.5%, aSyn yeast inh 1.1% and TDP-43 yeast inh 8.6%.

Part of the list above in order of SMILES length, highest first:
For CCOC(=O)O[C@@H](C)OC(=O)[C@@H]1N2C(=O)[C@@H](NC(=O)[C@@H](N)c3ccccc3)[C@H]2SC1(C)C the results were GLP1R ag -0.2%[19.8 µM].
Screening COc1c(N2C[C@@H]3CCCN[C@@H]3C2)c(F)cc2c(=O)c(C(=O)O)cn(C3CC3)c12 returned PTHR1 ag -12.1%, Abeta yeast res 7.2%, GLP1R ag -1.3%, FUS yeast rescue -18.9%, Akt phos inh inactive, GLP-1R inv ag -10.5%, aSyn yeast inh -0.8% and TDP-43 yeast inh 0.0%.
For Cc1cccc(CN2CCN(C(c3ccccc3)c3ccc(Cl)cc3)CC2)c1 (stereo unspecified) the results were PTHR1 ag 13.4%, Abeta yeast res -19.4%, GLP1R ag -0.8%, FUS yeast rescue 26.4%, Akt phos inh inactive, GLP-1R inv ag inconclusive, aSyn yeast inh -17.6% and TDP-43 yeast inh -5.2%.
For Nc1ccn([C@@H]2O[C@H](CO)[C@@H](O)C2O)c(=O)n1 (stereo partly specified) the results were PTHR1 ag inactive, Abeta yeast res -5.0%, GLP1R ag -1.9%&-2.8%, FUS yeast rescue -41.0%, Akt phos inh inactive, GLP-1R inv ag inconclusive, aSyn yeast inh 0.0%&4.7% and TDP-43 yeast inh 9.9%.
For CN=C(C[N+](=O)[O-])NCCSCc1ccc(CN(C)C)o1 the results were PTHR1 ag -1.1%, Abeta yeast res -8.8%, GLP1R ag 3.4%, FUS yeast rescue -10.3%, Akt phos inh inactive, GLP-1R inv ag 5.5%, aSyn yeast inh 1.1% and TDP-43 yeast inh 8.6%.
Screening O=C(O)c1cc(-c2ccccc2)nc2ccccc12 returned PTHR1 ag inactive, Abeta yeast res -24.1%, GLP1R ag -0.2%, FUS yeast rescue -29.5%, GLP-1R inv ag 6.6%, aSyn yeast inh -6.2% and TDP-43 yeast inh 1.4%.
NCCS(=O)(=O)O was read as PTHR1 ag inactive, Abeta yeast res -31.3%, GLP1R ag -3.8%&-6.2%, FUS yeast rescue -37.1%, Akt phos inh inactive, GLP-1R inv ag 13.4%, aSyn yeast inh -11.8%&-1.2% and TDP-43 yeast inh 14.3%.

Assay outcomes: PubChem BioAssay, National Center for Advancing Translational Sciences (NCATS)

This is a subset; the hit share may differ from the screen's.
